Mtb growth – Mycobacterium tuberculosis H37Rv growth inhibition, putative kinase inhibitor library, confirmatory dose response (AID 2842) | hit rate 5.2% among 24,000 | inhibition, % at 10 µg/mL; hits with a dose series show IC90 in µg/mL | M. tuberculosis H37Rv growth inhibition; higher % means a stronger effect; some inactives read as strong as hits;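 active = confirmed in a dose series; about a fifth of its hits are not listed in these tables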;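 note: bacteria incubated one week before Alamar blue readout; 0% = bacteria only wells and 100% = bacteria with high antibiotic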
The depositor's hits bear a star.

SMILES	Mtb growth
Cc1csc(NC(=O)CSc2ccc3nnc(-c4cccc(F)c4)n3n2)n1	-1.9%
Nc1nc(SCCO)[nH]c(=O)c1NC(=O)c1ccc(C(F)(F)F)cc1	-3.4%
Cc1cc(C)cc(NC(=O)CSc2nnc(-c3ccco3)n2-n2cccc2)c1	0.5%
COc1ccc(N2CCN(Cc3nc4c(c(=O)n(C)c(=O)n4C)n3CC(C)=O)CC2)cc1	-9.8%
COc1ccc(OC)c2[nH]c(=O)c(CCNC(=O)c3ccc(C(C)(C)C)cc3)cc12	2.1%
Cc1cc(SCC(=O)Nc2ccccc2)nc(=O)[nH]1	-6.7%
Cc1ccc(NC(=O)C(=O)c2c[nH]c3ccccc23)cc1C	12.8%
COC(=O)c1c(NC(=O)c2ccc(C(C)(C)C)cc2)sc2c1CCN(C(C)=O)C2	-1.4%
CCOc1ccc(-c2nnc3c4cc5c(cc4n(Cc4ccc(F)cc4)cc2-3)OCCO5)cc1	55.0%
C=CCOC(=O)C1=C(C)Nc2c(c(=O)n(C)c(=O)n2C)C1c1cccnc1 (stereo unspecified)	-9.4%
CCOC(=O)c1ccc(NC(c2ccccn2)c2oc(CO)cc(=O)c2O)cc1 (stereo unspecified)	73.1%
Cc1cc2cc(CCNC(=O)c3ccco3)c(=O)[nH]c2cc1C	8.0%
Cn1c(=O)[nH]c(=O)c2c1nc(N1CCCC1)n2CCSc1nnnn1-c1ccccc1	2.0%
Cc1ccc(CCC(=O)Nc2ccc(Cl)c([N+](=O)[O-])c2)o1	18.8%
O=C(O)CCc1nnc2n(Cc3ccc(F)cc3)c(=O)c3ccccc3n12	-18.6%
CCOC(=O)c1nn(-c2ccc(C)cc2)c(=O)c2c(NC(=O)c3cccc(Cl)c3)scc12	-9.8%
CC1Cc2nc(SCC(=O)NCC3CCCO3)n(C)c(=O)c2S1 (stereo unspecified)	-11.2%
COc1ccccc1NC(=O)CC1Nc2cc(C)c(C)cc2NC1=O (stereo unspecified)	8.1%
CCSc1nc2c(c(=O)[nH]c(=O)n2C)n1C	1.9%
Cc1ccccc1CSc1nnc(C)c(=O)n1N	-0.3%

Single values from above:
Mtb growth with `Cc1cc2cc(CCNC(=O)c3ccco3)c(=O)[nH]c2cc1C` = 8.0%
Mtb growth with `Cc1ccccc1CSc1nnc(C)c(=O)n1N` = -0.3%
Mtb growth with `Cc1cc(SCC(=O)Nc2ccccc2)nc(=O)[nH]1` = -6.7%

Continuation.
SMILES	Mtb growth
C=CCOC(=O)C1=C(C)Nc2[nH]c(=O)[nH]c(=O)c2C1c1cccc(O)c1 (stereo unspecified)	1.8%
CCOC(=O)c1nn(-c2ccccc2)c(=O)c2c(NC(=O)Cc3ccccc3)scc12	-8.2%
COc1ccc2oc(=O)c(-c3nnc(NCc4ccco4)s3)cc2c1	-6.3%
Nc1nc(SCC(=O)Nc2cccc(C(F)(F)F)c2)[nH]c(=O)c1NC(=O)c1cccs1	-12.6%
Cc1cccc(Cn2c(SCCCO)nc3c2c(=O)n(C)c(=O)n3C)c1	12.8%
Fc1ccc2nc(Nc3nnc(-c4cccs4)o3)sc2c1	36.0%
O=C(C1=C(O)C(=O)N(CCCn2ccnc2)C1c1cccc(Cl)c1)c1cc2ccccc2o1 (stereo unspecified)	-17.8%
CCc1cc2c(NCC(=O)O)ncnc2s1	-2.3%
Cc1oc(-c2cc(Cl)cc(Cl)c2)cc1-c1nn2c(-c3ccccc3)nnc2s1	1.0%
CCOC(=O)c1nn(-c2ccc(C)cc2)c(=O)c2c(NC(=O)COc3ccccc3)scc12	-5.3%
COc1ccccc1OCC(=O)Nc1ncc(Cc2ccc(C)cc2)s1	3.4%
CNC(=O)CC1Sc2ccccc2NC1=O (stereo unspecified)	-7.5%
NS(=O)(=O)c1ccc(NC(=O)c2cc(Cl)sc2Cl)cc1	1.6%
O=C1NC(=O)C(=Cc2nc(-c3ccc(Cl)cc3)n3ccccc23)C(=O)N1	15.3%
Cc1ccc(-c2nnc(NC(=O)c3cc(Br)ccc3Cl)s2)cc1	-8.6%
O=c1oc2cc(S(=O)(=O)NCCCO)ccc2c2ccc(S(=O)(=O)NCCCO)cc12	-16.3%
CCOC(=O)c1nn(-c2ccccc2)c(=O)c2c(NC(=O)c3ccccc3C(F)(F)F)scc12	4.1%
COc1ccc(OC)c2[nH]c(=O)c(CCNC(=O)Cc3ccccc3)cc12	15.5%
CC(=O)c1sc(NC(=O)c2ccc(-c3ccccc3)cc2)nc1C	1.4%
O=C(/C=C/c1cccs1)Nc1ncc(S(=O)(=O)c2ccc([N+](=O)[O-])cc2)s1	1.4%
Nc1ncnc(Nc2cc(C(F)(F)F)ccc2Cl)c1[N+](=O)[O-]	-3.4%
Cc1csc2ncc(C(=O)Nc3ccc(OC(F)(F)F)cc3)c(=O)n12	-0.5%
CCCCOc1ccc(C(=O)NCCc2cc3cc(C)c(C)cc3[nH]c2=O)cc1	-2.1%
CCCc1ccc(Oc2c(C)oc3c(C)c(O)ccc3c2=O)cc1	-15.4%
O=C(NCc1ccco1)C(=O)Nc1cc2c3c(c1)CC(=O)N3CCC2	11.8%
CCS(=O)(=O)c1ccc(C(=O)Nc2nnc(-c3cc(Cl)ccc3Cl)o2)cc1	71.5%
Cc1ccc(C(=O)Nc2c(N)nc(SCC(=O)Nc3ccc(F)cc3F)[nH]c2=O)cc1	-11.2%
CCOC(=O)c1c(-c2ccccc2Cl)csc1NC(=O)CSc1nnnn1-c1ccccc1	-9.5%
Cc1ccc(Sc2nc3c(c(=O)[nH]c(=O)n3C)n2Cc2ccccc2Cl)cc1	0.2%
Cn1c(=O)[nH]c(=O)c2c1nc(N1CCCC1)n2CC(=O)c1ccccc1	3.4%
Cc1ccc(C(=O)Nc2c(N)nc(SCC(=O)Nc3ccc(C)cc3C)[nH]c2=O)cc1	-12.6%
Cc1ccc(NS(=O)(=O)c2c[nH]c(=O)[nH]c2=O)cc1Cl	-0.6%
CC(=O)Nc1ccc(NC(=O)CSc2ncnc3ccccc23)cc1	-12.4%
O=C(Cc1ccc(F)cc1)Nc1cccc(-c2ccc3nncn3n2)c1	-1.5%
Cc1ccc(C)c(OCCCCn2c(CO)nc3ccccc32)c1	14.8%
CCn1c(NC2CCCCC2)nc2c1c(=O)n(C)c(=O)n2C	-4.8%
CCOC(=O)c1nn(-c2ccc(F)cc2)c(=O)c2c(NC(=O)c3ccc(C)c(C)c3)scc12	2.7%
O=C(CCN1C(=O)c2ccccc2S1(=O)=O)Nc1ncc([N+](=O)[O-])s1	-5.0%
Oc1ccccc1Nc1nc(-c2cccnc2)nc2ccccc12	5.5%
O=C(CCSc1ccccc1)Nc1nnc(-c2ccc(Br)cc2)o1	-1.2%
CC(C)CC(=O)N(Cc1ccccc1)c1nnc(C23CC4CC(CC(C4)C2)C3)s1	26.0%
CSc1cccc2sc(Nc3cccc(C)c3)nc12	12.2µg/mL*
O=C(Nc1nnc(-c2ccco2)o1)c1cc(Cl)sc1Cl	-7.5%
CCOc1ccc(CCNC(=O)c2nnn(CC(=O)Nc3cc(C)cc(C)c3)c2N)cc1OCC	-1.1%
Nc1sc2c(c1-c1nc3ccccc3s1)CCCC2	25.4%
COc1cc(Br)cc2cc(S(=O)(=O)c3ccc(F)cc3)c(=O)oc12	-3.4%
CCCCCNC(=O)Cc1cc(=O)[nH]c(=O)[nH]1	-10.9%
O=[N+]([O-])c1cccc(C2=Nn3c(nnc3-c3ccccc3)SC2)c1	-4.6%
Brc1ccc2nc(N3CCc4ccccc4C3)sc2c1	1.9%
O=C(CSc1nc2c([nH]c3ccccc32)c(=O)n1-c1cccc(C(F)(F)F)c1)N1CCN(c2ccccc2)CC1	-8.0%
Cc1cccc(C(=O)Nc2nnc(-c3cccc(C)c3)s2)c1	8.5%
Cc1ccc(CNC(=O)NC2CC(=O)N(c3cccc(F)c3)C2)cc1 (stereo unspecified)	6.8%
O=C(Oc1coc(CSc2ncccn2)cc1=O)C1CC(=O)N(c2ccccc2)C1 (stereo unspecified)	-9.0%
CCCCOc1ccc(C(=O)Nc2nnc(-c3cc(OC)c(OC)c(OC)c3)o2)cc1	-4.0%
CCn1c(SCCc2ccccc2)nc2c1c(=O)[nH]c(=O)n2C	16.5%
O=C(Cc1cnn(-c2ccccc2)c1)c1ccc(O)c(O)c1O	-20.4%
O=C(Nc1c(C(=O)Nc2ccc3c(c2)OCO3)oc2ccccc12)c1cc2ccccc2o1	-16.8%
O=C(c1ccco1)N(CCCn1ccnc1)c1nc2ccc(Cl)cc2s1	0.89µg/mL*
COC(=O)c1c(NC(=O)c2cccc(N3C(=O)CCC3=O)c2)sc2c1CCN(C(C)=O)C2	2.6%
CCOCCCNC(=O)NC1CC(=O)N(c2ccc(OC)cc2)C1 (stereo unspecified)	-4.3%

Arranged by molecular weight (descending): part of the list above.
SMILES	Mtb growth
CCCCOc1ccc(C(=O)Nc2nnc(-c3cc(OC)c(OC)c(OC)c3)o2)cc1	-4.0%
O=C(c1ccco1)N(CCCn1ccnc1)c1nc2ccc(Cl)cc2s1	0.89µg/mL*
Brc1ccc2nc(N3CCc4ccccc4C3)sc2c1	1.9%
Cc1ccc(CNC(=O)NC2CC(=O)N(c3cccc(F)c3)C2)cc1 (stereo unspecified)	6.8%
O=[N+]([O-])c1cccc(C2=Nn3c(nnc3-c3ccccc3)SC2)c1	-4.6%
O=C(Nc1nnc(-c2ccco2)o1)c1cc(Cl)sc1Cl	-7.5%
CCCCCNC(=O)Cc1cc(=O)[nH]c(=O)[nH]1	-10.9%

More compounds follow.
SMILES	Mtb growth
C#CCn1c(=NC(=O)COc2ccc(Cl)cc2Cl)sc2cc(S(N)(=O)=O)ccc21	-6.5%
CC1CCc2c(C#N)c(N)sc(=S)c2C1 (stereo unspecified)	56.3%
CCOC(=O)c1nn(-c2ccc(F)cc2)c(=O)c2c(NC(=O)c3cccc4ccccc34)scc12	-2.6%
COCCn1c(=NC(=O)c2cc3ccccc3oc2=O)sc2cc(NC(C)=O)ccc21	-5.1%
CC(C)(C)c1ccc(C2NC(=O)c3sc4nc(C5CC5)cc(-c5ccccc5)c4c3N2)cc1 (stereo unspecified)	6.0%
O=C(Nc1nnc(-c2ccc(F)cc2)s1)c1ccccc1C(F)(F)F	-13.7%
CCc1ccc(NC2CC(=O)N(c3cccc(C(F)(F)F)c3)C2=O)cc1 (stereo unspecified)	7.2%
O=C(CSc1ccc2nnc(-c3ccccc3)n2n1)NCc1ccccc1Cl	32.6%
Nc1[nH]n(-c2ccccc2)c(=O)c1N=Nc1ccc2c(c1)OCO2	26.7%
Nc1sc2c(c1C(=O)NC1CCS(=O)(=O)C1)CCCC2 (stereo unspecified)	6.6%
O=c1cc(Nc2ccc3c(c2)OCCO3)[nH]c(=O)n1-c1ccc(Cl)cc1	-2.5%
CCN(CC)C(=O)CSc1nnc(CNC(=O)c2cccc([N+](=O)[O-])c2C)o1	-10.0%
CCN(CC)S(=O)(=O)c1ccc(C(=O)Nc2sc3c(c2C#N)CCN(C(C)C)C3)cc1	-1.0%
CC(=O)c1ccc(S(=O)(=O)NC2CC(=O)N(c3ccc(C)c(C)c3)C2)cc1 (stereo unspecified)	6.7%
CCOc1ccc(C(=O)Nc2nc3ccc4sc(C)nc4c3s2)cc1	1.3%
O=C(Nc1c(C(=O)Nc2ccccc2)oc2ccccc12)c1ccc(Cl)cc1	-0.8%
Cc1ccc(-c2nnc(NC(=O)c3ccccc3C)o2)c(C)c1	2.52µg/mL*
Cc1cccc(CSc2nc(N)c(NC(=O)c3ccco3)c(=O)[nH]2)c1	-3.0%
Cc1cccc(NC(=O)CSc2nnc(C)c(=O)n2N)c1	-8.6%
COc1ccc(-c2nn(-c3ccccc3)cc2CNC(=O)/C=C/C(=O)O)cc1	-17.8%
O=C(CSc1nc2c(c(=O)n1-c1ccc(Cl)cc1)SCC2)Nc1cccc2ccccc12	0.7%
COc1ccc(N=Cc2ccc(OC(=O)c3ccco3)cc2OC(=O)c2ccco2)cc1	12.3%
Cc1ccc(-n2nc3c(c2NC(=O)CCC2CCCCC2)CS(=O)C3)cc1 (stereo unspecified)	10.5%
Cc1ccc(C(CNC(=O)C(=O)Nc2ccccc2)N2CCN(C)CC2)cc1 (stereo unspecified)	-3.3%
Cc1oc2c(c1C(=O)N1CCOCC1)C(=O)c1ccccc1C2=O	47.5%
Cc1ccc(-n2ncc3c(=O)n(CC(=O)NCc4ccco4)cnc32)cc1C	0.2%
Cc1cc2c(cc1C)NC(CC(=O)NCCc1ccccc1)C(=O)N2 (stereo unspecified)	14.7%
COC(=O)c1ccc(C2/C(=C(\O)c3cccc(OC)c3)C(=O)C(=O)N2CCN(C)C)cc1 (stereo unspecified)	-7.1%
Cc1ccc(-n2c(SCC(=O)Nc3ccc(C)cc3C)nc3c(c2=O)SCC3)cc1	0.4%
NC(=O)c1ccsc1NC(=O)CCS(=O)(=O)c1ccc(Cl)cc1	11.3%
Fc1ccc2nc(Nc3nnc(-c4ccccc4)o3)sc2c1	16.8%
Cc1ccc(-n2nnc3c(SCC(=O)N4CCOCC4)ncnc32)cc1	12.3µg/mL*
COc1ccc(NC(=O)CSc2nnc(C)c(=O)n2N)cc1OC	-8.2%
Cc1nc2sc(C(c3ccc(Br)cc3)N3CCOCC3)c(O)n2n1 (stereo unspecified)	0.1%
COc1ccc(-c2nc(SCC(=O)Nc3ccc(C)c(Cl)c3)c3c(=O)n(C)c(=O)n(C)c3n2)cc1	1.0%
CCOC(=O)c1nn(-c2ccc(F)cc2)c(=O)c2c(NC(=O)c3ccccc3Cl)scc12	11.5%
CC(=O)Oc1ccc(N2C(=O)CC(Sc3ncccc3C(=O)O)C2=O)cc1 (stereo unspecified)	-6.8%
COc1ccc(C(=O)Nc2c(N)nc(SCC(=O)Nc3ccccc3)[nH]c2=O)cc1OC	-7.0%
CC(=O)c1c(O)nc2sccn12	20.3%
COc1ccc(S(=O)(=O)c2cn(Cc3cccc(C)c3)c3ccc(F)cc3c2=O)cc1	1.5%
COCCCn1c(O)c(/C=C2\C=NN=C2c2ccccc2)sc1=S	11.2%
CNC(=O)c1ccsc1NC(=O)c1cc(=O)c2ccccc2o1	3.5%
CCOc1ccc(C(=O)c2cn(Cc3ccc(OC)cc3)c3c(F)cc(F)cc3c2=O)cc1	-2.3%
O=C(N/N=C/c1ccc(O)cc1)c1ccccc1Cl	-1.6%

Looked up one by one from the list above, two records:
SMILES	Mtb growth
CCOc1ccc(C(=O)c2cn(Cc3ccc(OC)cc3)c3c(F)cc(F)cc3c2=O)cc1	-2.3%
COCCCn1c(O)c(/C=C2\C=NN=C2c2ccccc2)sc1=S	11.2%

A portion of the library, so the mix of outcomes need not match the whole.
